Compound activity: PubChem, several laboratories
AF4-AF9 inh = blocks AF4 peptide binding to human AF9; P42568; AlphaScreen, biotin-AF4 peptide binding to FLAG-AF9; inhibition, % at 10 µM; 350,000 compounds, 0.47% hits; AID 651704;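 active = every replicate reaching a set inhibition limit, whatever the replicate mean, cut at about 25% in these data; inconclusive = mean inhibition reaches that limit but some replicates miss it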;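 also: 0% = plate neutral control median and 100% = total signal loss; the record names both 10 and 1 µM as test concentration; the first replicate is given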
Target sequence (P42568 whole entry, looked up): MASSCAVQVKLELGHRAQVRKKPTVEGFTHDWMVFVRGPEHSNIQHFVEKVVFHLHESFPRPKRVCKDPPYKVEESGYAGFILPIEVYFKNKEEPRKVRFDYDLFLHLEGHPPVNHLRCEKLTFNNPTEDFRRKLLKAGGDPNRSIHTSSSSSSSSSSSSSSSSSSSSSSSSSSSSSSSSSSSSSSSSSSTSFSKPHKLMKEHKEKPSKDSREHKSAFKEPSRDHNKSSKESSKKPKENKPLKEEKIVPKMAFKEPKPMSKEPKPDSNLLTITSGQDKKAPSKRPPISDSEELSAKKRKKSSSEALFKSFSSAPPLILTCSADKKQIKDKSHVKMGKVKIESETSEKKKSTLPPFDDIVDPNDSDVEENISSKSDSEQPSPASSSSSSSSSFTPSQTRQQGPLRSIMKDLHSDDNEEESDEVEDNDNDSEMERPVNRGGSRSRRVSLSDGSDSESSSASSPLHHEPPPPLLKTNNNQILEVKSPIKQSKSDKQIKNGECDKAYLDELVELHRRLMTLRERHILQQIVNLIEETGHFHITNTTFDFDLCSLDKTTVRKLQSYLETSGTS
HNF4A DNA FP = change in binding of human HNF4 alpha to DNA. HNF4a-FITC DNA binding, fluorescence polarization, 1 h. AID 1224865. activity change, % at 10 µM. 360,000 compounds, 0.3% hits; in the data active = activity change above about 30%, passing the limit was not always enough;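 also: controls were the assay level and a saturating level of protein; the project sought stronger binding though the title names inhibitors; some compounds called inactive have numbers as strong as hits; positive values seem to mean higher polarization but the record does not say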
Target sequence (P41235 whole entry, looked up): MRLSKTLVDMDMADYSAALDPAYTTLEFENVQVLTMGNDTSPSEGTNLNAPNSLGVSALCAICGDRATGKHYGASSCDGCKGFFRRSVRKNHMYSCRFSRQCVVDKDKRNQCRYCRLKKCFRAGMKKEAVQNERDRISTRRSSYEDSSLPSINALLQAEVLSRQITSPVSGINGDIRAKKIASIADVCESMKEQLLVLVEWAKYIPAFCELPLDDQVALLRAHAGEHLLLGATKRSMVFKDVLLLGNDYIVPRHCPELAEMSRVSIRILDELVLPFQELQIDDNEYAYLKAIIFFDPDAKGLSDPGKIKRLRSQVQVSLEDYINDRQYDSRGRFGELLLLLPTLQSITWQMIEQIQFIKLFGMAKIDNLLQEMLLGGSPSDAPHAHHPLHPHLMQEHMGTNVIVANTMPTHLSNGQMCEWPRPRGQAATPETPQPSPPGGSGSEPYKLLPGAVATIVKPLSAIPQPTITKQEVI
ALR H2O2 inh = human ALR oxidase inhibition via reduced H2O2; purified ALR, DTT oxidation, H2O2 HRP-luminol luminescence; inhibition, % (no concentration beside the values); 290,000 compounds, 3.8% hits; AID 485317;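 active = mean and each replicate at 75% or more; inconclusive = only one of the two met; inactive = neither met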;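 also: stock transfer was 7.5 nL into about 7.5 µL; 0% = neutral wells and 100% = wells with inactivated enzyme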
Ecoli rRNA inh = inhibitors of bacterial rRNA selective over humanized ribosomes | 350,000 compounds, 1.6% hits | GFP signal change (wild-type ribosome), % (no concentration beside the values) | E. coli WT GFP vs humanized-ribosome RFP mutants, fluorescence, 24 h; active compounds read low; DMSO median 0, no signal -100;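 active = significant combined selectivity score with lowered wild-type GFP, culture density cut under 30%, mutant RFP and density less affected; inactive = any of these conditions unmet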; also: one replicate is shown; some compounds called inactive have numbers as strong as hits
Ecoli growth = inhibitors of Escherichia coli growth. OD600, 23 h; active compounds read low. OD600 absorbance (no concentration beside the values). 330,000 compounds, 0.21% hits. AID 1053175;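 active = OD600 absorbance below the run mean of sample wells minus 3.6 SD, in any replicate, cut at about 0.56 in these data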;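 also: stock transfer was 300 nL into about 60 µL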
FGF22 binding = FGF22 (human) thermal shift binding | Q9HCT0 | recombinant FGF22 thermal shift, SYPRO orange fluorescence; percent of sucrose octasulfate shift, DMSO zero | calls only at 9.99 µM | 340,000 compounds, 1.5% hits | AID 651658;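 active = melting point raised past a set limit in the mean and every replicate; inconclusive = no clear call; three in four hits are not shown here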
Vif TR-FRET = inhibitors of Vif binding to APOBEC3G peptide, primary screen, biochemical, TR-FRET, GST-Vif 1-94, biotin-A3G peptide, dose response retest (AID 1117319); TR-FRET GST-Vif / biotin-A3G peptide binding; higher % means a stronger effect; test concentration not given here; strong numbers were not always called active; one-dose inhibition, %; IC50 in µM for titrated hits; 260,000 compounds, 0.57% hits;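 active = above the screen mean plus three standard deviations and confirmed in dose response; inconclusive = results disagree or hit not tested in dose response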;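 also: Vif residues 1-94 fused to GST binding biotinylated APOBEC3G peptide 110-148; 0% = full assay without inhibitor and 100% = GST in place of GST-Vif; retest series ran down from 100 µM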
Ecoli rRNA inh OD600 = recorded beside Ecoli rRNA inh, whose call it bears; OD600 change, %; measured here: OD600 growth;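 optical density of the mix in the first replicate; 0 = DMSO median and -100 = no signal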
Ecoli rRNA inh RFP = recorded beside Ecoli rRNA inh, whose call it bears; RFP signal change, %; measured here: RFP humanized mutant strains;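 first replicate; 0 = DMSO median and -100 = no signal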
Active calls of the source: *; i = inactive; ? = inconclusive; / = not tested or not shown; & = joins results of further samples.

SMILES | AF4-AF9 inh | HNF4A DNA FP | ALR H2O2 inh | Ecoli rRNA inh | Ecoli rRNA inh OD600 | Ecoli rRNA inh RFP | Ecoli growth | FGF22 binding | Vif TR-FRET
O=C(C[C@@H]1CC[C@H]2[C@@H](COC[C@H](O)CN2C(=O)Nc2cccc(Cl)c2)O1)NCCCN1CCOCC1 | -0.2 | / | / | -38.8 | -60.5 | 9.4 | / | i | /
CC(=O)c1c(C)nn(CCC(=O)O)c1C | / | -5.1 | -6.3 | / | / | / | 0.709 | / | 2.5%
Cc1ccc(NC(=O)C2CCCN(C(=O)c3ccc(Cl)cc3)C2)cc1 (stereo not drawn) | 0.7 | -1.9 | -5.5 | 0.2 | 1.2 | -3.2 | 0.692 | / | 5.4%
Cc1ccc(C2=Nn3c(COc4ccc(Cl)cc4)nnc3SC2CC(=O)O)cc1 (stereo not drawn) | -0.4 | 6.9 | 97.5* | -9.8 | -9.3 | 1.9 | 0.668 | i | /
C[C@H]1CN([C@@H](C)CO)C(=O)Cc2cc(NC(=O)Nc3ccc4c(c3)OCO4)ccc2O[C@H]1CN(C)S(=O)(=O)c1ccccc1 | 4.1 | / | / | 1.4 | -0.8 | 6.1 | / | i | /
COc1ccc(Nc2nnc(Cc3ccc(Cl)cc3)c(=O)[nH]2)c(OC)c1 | / | 0.9 | -21.3 | / | / | / | 0.692 | / | -0.9%
CC(/C=C/c1ccccc1)=N/O | / | -0.7 | 0.2 | / | / | / | / | / | 0.3%
Cc1nn(Cc2ccc(Cl)cc2)c(C)c1NC(=O)c1noc2c1CCc1ccccc1-2 | -0.1 | 3.7 | / | -3.3 | -9.0 | 2.2 | 0.71 | i | -3.3%
O=c1cc(-c2ccccc2)nc(N2CCN(Cc3ccccc3)CC2)[nH]1 | / | 0.2 | 7.8 | / | / | / | 0.713 | / | 17.9%
Cc1cccc(C)c1OC1(c2ccccc2)OC(=O)c2ccccc21 (stereo not drawn) | / | 1.5 | 2.1 | / | / | / | 0.661 | / | 2.9%
CC(CCC(=O)O)C1CC[C@H]2C3CCC4CC(=O)CCC4(C)[C@H]3CC(=O)C12C (stereo partly drawn) | 2.3 | -5.1 | -20.7 | -5.8 | -8.3 | -0.2 | 0.669 | i | -4.7%
COc1ccc(OC)c(-c2nnc3n2N=C(c2ccc(OC)c(OCC4CC4)c2)CS3)c1 | / | 4.8 | -0.9 | / | / | / | 0.689 | / | /
Cc1c(C2(O)C(=O)Nc3ccc(F)cc32)c(=O)n(-c2ccccc2)n1C (stereo not drawn) | / | 1.7 | 4.5 | / | / | / | 0.732 | / | -2.0%
CN(C)S(=O)(=O)n1cnc(-c2ccccc2)c1-c1ccccc1 | / | 0.8 | / | / | / | / | 0.692 | / | -9.2%
NC(=O)C1(N2CCCCC2)CCN(C(=O)Nc2ccccc2C(F)(F)F)CC1 | / | / | -2.2 | / | / | / | 0.673 | / | 32.2%
CCCCCCCc1ccc(-c2ccc(O)cc2)nc1 | -3.7 | 4.1 | / | -1.8 | -2.4 | 2.0 | 0.612 | i | -3.3%
COc1cc(C(=O)Nc2cc(C)ccn2)ccc1OCC(=O)N1CCOCC1 | -0.4 | 0.6 | -7.5 | -2.8 | -1.7 | -1.8 | 0.666 | i | /
CCOC(=O)C1=C(C)Nc2nnnn2C1c1ccccc1Cl (stereo not drawn) | / | 1.0 | -3.9 | / | / | / | 0.686 | / | 1.0%
CCC(CC)NC(=O)C1CC(=O)N(CCc2ccc(F)cc2)C1 (stereo not drawn) | 1.9 | -2.1 | -22.5 | 4.3 | 8.5 | -0.5 | 0.675 | i | /
N=c1n(CC(=O)c2cccs2)c2ccccc2n1Cc1ccccc1 | 3.5 | -4.5 | -10.0 | -7.5 | -1.4 | 3.0 | 0.654 | i | -4.2%
CC(C)CN1CCN(Cc2cccc3ncccc23)CC1CCO (stereo not drawn) | 0.4 | -7.2 | -22.0 | 13.5 | 11.1 | 2.6 | 0.699 | i | /
Cc1[nH]c2ccccc2c1C(=O)CN1CCCC(C)C1 (stereo not drawn) | -0.8 | -3.0 | -6.2 | 4.9 | 10.9 | 6.8 | 0.715 | i | -3.0%
Cc1ccc(NC(=O)C(Cc2ccccc2)n2cccc2)cc1 (stereo not drawn) | 2.2 | 0.8 | 9.0 | -5.7 | -0.7 | -2.4 | 0.678 | i | /
CCC1(c2cccc(Cl)c2)NC(=O)N(Cc2cc(C(=O)OC)c(C)o2)C1=O (stereo not drawn) | / | -0.3 | -7.9 | / | / | / | 0.734 | / | 16.2%
Cc1ccc(S(=O)(=O)Nc2ccc3c(c2)CC(=O)N([C@H](C)CO)C[C@H](C)[C@@H](CN(C)Cc2ccc(Oc4ccccc4)cc2)O3)cc1 | 3.3 | / | / | -0.5 | -3.6 | 3.7 | / | i | /

More compounds follow.
SMILES | AF4-AF9 inh | HNF4A DNA FP | ALR H2O2 inh | Ecoli rRNA inh | Ecoli rRNA inh OD600 | Ecoli rRNA inh RFP | Ecoli growth | FGF22 binding | Vif TR-FRET
O=C(c1cc(Cl)c(=O)n(Cc2ccc(Cl)cc2)c1)N1CCOCC1 | / | -0.8 | 1.6 | 5.5 | 13.1 | 2.7 | 0.702 | / | 26.3%
COc1ccc(Cl)cc1-c1cc(C(=O)NCc2ccccc2)[nH]n1 | -0.6 | 3.1 | / | -18.1 | -58.3 | 19.4 | / | i | /
COc1ccc(CC(=O)OCC(=O)NC(=O)NC(C)C)cc1 | / | 1.6 | -2.8 | / | / | / | 0.707 | / | 4.6%
Cc1ccc(-c2nnc(CSc3nnc(COc4cccc5ccccc45)n3-c3ccccc3)o2)cc1 | / | 3.7 | -2.0 | / | / | / | 0.789 | / | 0.0%
C/C(=N\Nc1ccc(Cl)c(C(=O)O)c1)c1cccc2ccccc12 | -2.8 | -12.0 | -8.2 | 4.9 | -23.4 | 0.2 | / | i | /
O=C(NC[C@H]1[C@@H](c2ccccc2)[C@@H](CO)N1CC1CCCC1)c1ccccc1 | 1.1 | / | / | -4.7 | -17.8 | 0.3 | / | i | /
COc1ccc(-c2cc(C(=O)NC3=NCCS3)c3ccccc3n2)cc1OC | -1.3 | 0.4 | 98.2* | -31.2 | -32.5 | -6.5 | 0.728 | / | -2.1%
COc1ccc(C(=O)/C=C/c2ccc(OC)c(O)c2)c(F)c1 | / | 2.1 | 65.7 | / | / | / | 0.614 | / | 22.3%
C[C@H](CO)N1C[C@H](C)[C@@H](CN(C)CC2CC2)Oc2c(NC(=O)Cc3ccccc3)cccc2C1=O | 3.2 | -0.3 | 6.7 | -1.6 | -5.7 | -4.8 | 0.722 | i | /
Cc1cc(=O)oc2cc(OC(=O)CCN3C(=O)c4ccccc4C3=O)ccc12 | 2.4 | 2.2 | 6.3 | 15.3 | 7.0 | -9.7 | 0.734 | i | -0.7%
COCC(=O)Nc1ccc2c(c1)[C@H]1C[C@@H](CC(=O)NCc3ccncc3)O[C@@H](CO)[C@H]1O2 | -3.2 | / | / | 7.1 | 18.9 | -1.9 | / | i | /
Cn1cnnc1Sc1nc2ccccc2nc1NS(=O)(=O)c1ccccc1 | / | -7.5 | 7.6 | / | / | / | 0.725 | / | 14.6%
O=C(c1ccccn1)N1CC[C@H]2[C@H](CO)Nc3ccc(-c4ccccc4)cc3[C@H]21 | -7.2 | / | / | -2.7 | -0.7 | -3.2 | / | i | /
CCN(C(=O)CSc1nc2ccccc2c(=O)n1-c1ccc(C)cc1)C1CCS(=O)(=O)C1 (stereo not drawn) | -0.7 | -3.3 | -7.4 | 0.1 | 0.0 | 3.3 | 0.682 | i | /
COc1ccc(S(=O)(=O)N(C)CC(=O)NC2CCCC2)cc1Cl | / | -0.1 | 2.1 | / | / | / | 0.73 | / | -2.8%
O=C(Nc1nnc(C2CC2)s1)c1ccco1 | 0.8 | -1.9 | -1.0 | 7.1 | -2.6 | -0.8 | 0.685 | i | 7.9%
CC(Oc1ccc(F)cc1)c1ccnc2nc(/N=C/N(C)C)nn12 (stereo not drawn) | -1.4 | 3.1 | -6.5 | 9.7 | 10.4 | 1.4 | / | / | -4.9%
CC(=O)c1cc(C(=O)Nc2ccc(C(=O)O)cc2)oc1C | / | 0.1 | 19.3 | / | / | / | 0.688 | / | ?
CC1(c2nnc(-c3cccc(Cl)c3)o2)CC(c2ccccc2F)=NO1 (stereo not drawn) | / | 3.1 | 48.5 | / | / | / | 0.686 | / | /
COc1cccc(/C=N/NC(=O)N/N=C/c2cccc(OC)c2O)c1O | 2.9 | -3.7 | 44.6 | -30.6* | -10.0* | -8.5* | / | i | /
C[C@H]1CN([C@@H](C)CO)C(=O)c2cc(NC(=O)Nc3ccc4c(c3)OCO4)ccc2O[C@@H]1CN(C)Cc1ccncc1 | -23.2 | / | / | 4.5 | 5.6 | 0.3 | / | i | /
CCOc1cc(C2c3c(n[nH]c3C)C(=O)N2c2ccc(C)cc2)ccc1O (stereo not drawn) | / | -1.3 | 33.4 | / | / | / | 0.677 | / | 20.3%&-7.5%
COc1ccc2c3c(n(C)c2c1)[C@H](CO)N(S(C)(=O)=O)CC31CCN(Cc2cccnc2)CC1 | 12.2 | / | / | -2.6 | -4.5 | -2.9 | / | i | /
OC[C@@H]1[C@H]2c3ccccc3NC[C@H]2N1Cc1ccccc1Cl | 4.2 | / | / | 0.4 | 1.0 | 0.7 | / | i | /
C[C@H]1O[C@@H](n2cc(F)c(=O)[nH]c2=O)[C@H](O)[C@@H]1O | 6.0 | 1.6 | 16.7 | -4.8 | -12.4 | -8.5 | / | i | /

Only Ecoli rRNA inh, HNF4A DNA FP and Ecoli rRNA inh OD600 (2 entries from above):
| Molecule | Ecoli rRNA inh | HNF4A DNA FP | Ecoli rRNA inh OD600 |
| --- | --- | --- | --- |
| O=c1cc(-c2ccccc2)nc(N2CCN(Cc3ccccc3)CC2)[nH]1 | / | 0.2 | / |
| Cc1cccc(C)c1OC1(c2ccccc2)OC(=O)c2ccccc21 (stereo not drawn) | / | 1.5 | / |

More entries:
SMILES | AF4-AF9 inh | HNF4A DNA FP | ALR H2O2 inh | Ecoli rRNA inh | Ecoli rRNA inh OD600 | Ecoli rRNA inh RFP | Ecoli growth | FGF22 binding | Vif TR-FRET
NNC(=O)c1sccc1OCc1ccc(Cl)cc1Cl | -0.4 | 2.8 | 7.2 | -9.3 | -14.6 | -4.5 | 0.707 | i | /
CCCSc1ncnc2sc(C)c(C)c12 | -1.6 | 0.0 | -2.7 | -1.3 | -3.0 | 1.4 | 0.641 | i | -1.5%
COc1cc(C(c2c(C)[nH][nH]c2=O)c2c(C)[nH][nH]c2=O)ccc1OS(=O)(=O)c1ccc(C)cc1 | / | 0.5 | 6.6 | / | / | / | 0.7 | / | 24.5%
Cc1cc(C)c([N+](=O)[O-])cc1NCC(=O)N1CCN(c2ccccc2)CC1 | 0.2 | 0.6 | 9.7 | 9.7 | 6.4 | 2.9 | 0.625 | i | 8.4%
COc1ccccc1N1CCN(/N=C/c2ccc(C(=O)O)cc2)CC1 | 2.9 | -1.1 | -55.0 | 0.8 | 13.4 | -0.4 | / | i | -5.0%
Cc1cc(C)cc(Nc2ncnc3nc[nH]c23)c1 | -4.1 | -1.0 | 30.0 | -0.4 | 3.2 | 1.7 | 0.648 | i | /
O=C(NCCS(=O)(=O)NCc1ccccn1)c1ccccc1 | 0.2 | -0.5 | -4.9 | 10.9 | 6.8 | 0.9 | 0.685 | i | /
Cc1ccc(S(=O)(=O)CC(=O)Nc2nc3ccccc3s2)cc1 | -1.6 | 1.2 | 2.2 | -16.4 | -15.8 | -0.9 | 0.655 | i | /
CS(=O)(=O)Nc1ccc2c(c1)[C@H]1C[C@H](CC(=O)NCc3cc(F)ccc3F)O[C@@H](CO)[C@H]1O2 | 0.8 | / | / | 0.9 | 1.6 | -3.0 | / | i | /

A portion of the library; rates above refer to the full screens.
